# Screening data: PubChem, National Center for Advancing Translational Sciences (NCATS)
# CtBP-E1A inh: blocks the CtBP interaction with E1A. AlphaScreen GST-E1A/His-CtBP binding, 1536-well; active compounds read low; control for the full effect not named in the record. activity change, % (test concentration not listed). actives 0.49% (n = 340,000); in the data active means activity change below about -65%; inconclusive means about -30% to -65%; inactive means above about -30%; note: % is set by controls: 0 for no effect and ±100 for the full control effect
#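 GST-E1A and His-tagged CtBP (125 nM each as 5X stock) were preincubated with pin-transferred compound for 2 h at 37 °C in the dark, then glutathione donor and nickel acceptor beads were added for 1 h before AlphaScreen reading.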
# gsp antagonist: antagonizes gsp, the McCune-Albright syndrome mutation; actives 0.4% (n = 340,000); Potency, µM (top dose mostly 76.9 µM), for inactives: at the top dose activity change, negative = inhibition, hits mostly inhibitors; AID 624288; gsp-mutant cells, cAMP HTRF, 30 min; control for the full effect not named in the record; active = falling curve of any shape with a large fitted effect; inconclusive = falling curve, mostly with a smaller effect; inactive = flat or rising curve; cell line not stated here;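 note: intracellular cAMP measured with PDE inhibitor Ro 20-1724 present during compound exposure; potency is the fitted concentration of half-maximal effect; % is set by controls: 0 for no effect and ±100 for the full control effect; nearly all actives have a fitted effect of over 65% in size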
#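 G418-selected cells were plated in DMEM/10% FBS for 16-24 h at 37C, then treated with compounds plus the PDE inhibitor […] (300 uM solution added) for 30 min at 37C. Intracellular cAMP was measured by HTRF after 30 min lysis at room temperature.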
# Menin-MLL FL inh: menin-MLL binding inhibition, fluorescein peptide | Fluorescence polarization, fluorescein-MLL peptide displacement from menin | FP activity change, % at 61.4 µM | 290,000 tested, under 10 active; inconclusive = falling polarisation curve, or a change in total fluorescence; inactive = total fluorescence flat and polarisation flat or rising; no compound was filed as active; the % refers to the polarisation; negative = inhibition;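 note: % of control where 0% means no effect; inhibitors lower the polarisation; unlabelled MLL peptide was the positive control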
# gsp agonist: agonists of gsp mutant (McCune-Albright syndrome); gsp mutant cells, cAMP HTRF, 30 min; control for the full effect not named in the record; Potency, µM (top dose mostly 76.9 µM), inactives show at the highest dose activation (cAMP increase), usual class: activators; actives 0.13% (n = 340,000); AID 624287; active = well fitted activation curve with a large enough effect; inconclusive = small, poorly fitted or top-dose-only effect, or another doubt; inactive = no such curve, though single readings can be large or run the other way; cell line not stated here;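 note: phosphodiesterase inhibitor Ro 20-1724 added with compounds to block cAMP breakdown; potency is the fitted concentration of half-maximal effect; nearly all actives have a fitted effect of over 60% in size; about a fifth of the inactives were tested at one dose only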
#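 Cells in DMEM/10% FBS with G418 were pretreated with compounds in DMSO plus […] (300 uM stock) for 30 min at 37C. cAMP was measured by HTRF (cAMP-d2 plus anti-cAMP antibody-K) after 30 min at room temperature.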
# Sfp PPTase inh: blocks B. subtilis Sfp PPTase activity; Potency, µM, inactives show max response, negative = inhibition, hits mostly inhibitors; Q9F4F7; actives 3.5% (n = 310,000); Biochemical Sfp PPTase activity, qHTS; active = well fitted inhibition curve with a large enough effect; inconclusive = small, poorly fitted or top-dose-only effect, or another doubt; inactive = no such curve, though single readings can be large or run the other way;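 note: the enzyme is Sfp with the accession as filed and its product quenches rhodamine fluorescence; potency is the fitted concentration of half-maximal effect; 0% = enzyme reaction without inhibitor and -100% = no enzyme wells; top concentration of the series not given in the record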
#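 Compounds were incubated with enzyme (final 15 nM) for 15 min at room temperature before substrate addition started the reaction. Fluorescence at 525 nm excitation, 598 nm emission was recorded immediately and after 30 minutes.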
# ClpP mod: qHTS Assay for Activators of ClpP; ATP-dependent Clp protease proteolytic subunit (Bacillus subtilis (strain 168)), P80244; purified B. subtilis ClpP, FRET peptide cleavage, 20 min; Potency, µM (series often up to 57.5 µM), inactives show at the top dose activity change, negative = active; actives 1.9% (n = 340,000); AID 651965, 2013; active = well fitted falling curve with a large enough effect; inconclusive = small, poorly fitted or top-dose-only effect; inactive = no such curve, though single readings can be large or run the other way; note: potency is the fitted concentration of half-maximal effect; the source files actives as falling curves though it sought activators and does not explain the sign; nearly all actives have a fitted effect of over 65% in size; many hits overshoot -100%
# Target sequence (P80244 whole entry, looked up): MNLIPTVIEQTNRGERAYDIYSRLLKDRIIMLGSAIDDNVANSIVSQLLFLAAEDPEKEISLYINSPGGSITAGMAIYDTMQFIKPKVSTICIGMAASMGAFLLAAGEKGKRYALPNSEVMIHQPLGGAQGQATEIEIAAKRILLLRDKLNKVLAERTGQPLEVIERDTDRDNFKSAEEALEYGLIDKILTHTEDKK
#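 Buffer: 100 mM Tris/HCl pH8, 100 mM KCl, 0.05% low protease BSA, 2.5% glycerol, 0.01% Tween-20. ClpP 10 microg/mL final; 20 min RT; delta FRET normalized to ADEP and DMSO controls.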
# TRPV1 PAM: enhances activation of the human vanilloid receptor TRPV1. Q8NER1. TRPV1-expressing cells, Fluo-8 calcium influx, capsaicin EC20 potentiation; host cell line not named in the record; control for the full effect not named in the record. potentiation, % at 8.33 µM. actives 0.02% (n = 320,000); active means potentiation above 80%; inconclusive means 30% to 80%; inactive means below 30%; note: 0% is about no effect
# Target sequence (Q8NER1 whole entry, looked up): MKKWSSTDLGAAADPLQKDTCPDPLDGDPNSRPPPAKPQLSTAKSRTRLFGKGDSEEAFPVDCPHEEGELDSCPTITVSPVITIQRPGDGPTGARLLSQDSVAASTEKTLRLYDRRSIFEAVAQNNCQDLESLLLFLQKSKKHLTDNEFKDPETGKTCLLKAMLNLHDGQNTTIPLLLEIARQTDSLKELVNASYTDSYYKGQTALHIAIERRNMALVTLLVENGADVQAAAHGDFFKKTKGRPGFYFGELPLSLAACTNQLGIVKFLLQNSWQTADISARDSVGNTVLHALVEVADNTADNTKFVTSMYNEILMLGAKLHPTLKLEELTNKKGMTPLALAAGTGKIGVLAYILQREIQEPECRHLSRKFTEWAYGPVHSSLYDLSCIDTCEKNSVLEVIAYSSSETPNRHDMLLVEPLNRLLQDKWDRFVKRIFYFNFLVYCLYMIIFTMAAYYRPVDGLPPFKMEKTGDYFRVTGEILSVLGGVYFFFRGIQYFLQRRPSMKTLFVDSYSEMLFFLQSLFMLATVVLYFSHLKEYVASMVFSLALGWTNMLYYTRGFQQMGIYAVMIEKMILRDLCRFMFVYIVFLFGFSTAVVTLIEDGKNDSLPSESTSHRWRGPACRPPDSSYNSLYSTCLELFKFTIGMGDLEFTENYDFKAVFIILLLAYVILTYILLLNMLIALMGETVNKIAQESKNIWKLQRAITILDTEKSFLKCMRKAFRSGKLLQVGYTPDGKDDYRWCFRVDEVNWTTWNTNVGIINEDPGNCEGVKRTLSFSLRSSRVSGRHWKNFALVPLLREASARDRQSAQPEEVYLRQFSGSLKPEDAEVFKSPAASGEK
#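 Fluo-8 calcium influx in TRPV1-expressing cells, kinetic read (ex 480/em 520 nm). Compound added and read 3 min for agonist activity, followed by capsaicin at EC20 final and 2 min further read for enhancement.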
# * = called active by the depositor; u = inconclusive; x = not tested or not shown; & = joins results of further samples; [ ] = dose if it differs, or a comment.
SMILES	CtBP-E1A inh	gsp antagonist	Menin-MLL FL inh	gsp agonist	Sfp PPTase inh	ClpP mod	TRPV1 PAM
Cc1ccsc1C(=O)c1sccc1C	-6	12%	0.1	-25%[15.4 µM]	-1%	x	9
O=C(NCc1ccncc1)c1ccc(N2CCCC2)c([N+](=O)[O-])c1	x	4%	0.0	9%[15.4 µM]	u	x	-11
C=C(Br)Cn1cnc2ccccc21	2	x	0.0	9%[15.4 µM]	6%	x	-7
Cc1ccc(S(=O)(=O)N(C)C)cc1NC(=O)CSc1nc2ccccc2c(=O)n1CC1CCCO1 (configuration not stated)	0	-12%	x	19%	10%	1.0%	7
O=C(O)C1C2CCC(O2)C1C(=O)NCCC1=CCCCC1 (configuration not stated)	8	-16%	2.7	u	8%	-0.9%	4
COC(=O)c1cc(-c2ccc(C)cc2)n[nH]1	x	4%	3.2	-31%[inhibitor]	-7%	1.0%	0
O=C(CSc1nnc(-c2ccco2)o1)c1ccc(F)c(F)c1	-2	4%	9.0	11%	4%	-0.7%	6
[O-]C1=N/[N+](=C/c2ccccc2Cl)CC1	-2	0%	-0.8	12%	-10%	0.7%	-1
CCCCN1C(=O)c2ccc(C(=O)NCCN3C(=O)S/C(=C\c4cccnc4)C3=O)cc2C1=O	-4	u	11	25%	-3%	-3.2%	-7
COc1ccc([C@@H]2[C@@H]3C(=O)N(C(C)(C)C)C(=O)[C@@H]3[C@]3(Cc4ccccc4)C(=O)N(c4ccc(C(F)(F)F)cc4)C(=O)N23)cc1	8	-1%	-0.1	u	22%	-1.4%	20
O=C(CN1CCN(c2ccccc2F)CC1)c1c[nH]c2ccc(F)cc12	-11	2%	7.4	5%	3%	-2.5%	19
Cc1cccc(OCCn2nnc3ccccc32)c1C	-4	-2%	0.6	-3%[15.4 µM]	7%	-1.7%	-5
C=CCN1C(=O)C(Cc2ccccc2)S/C1=N/N=C/c1cccs1 (configuration not stated)	-1	9%	3.6	-16%	3%	-0.1%	10
CC(C)=CCC(C)(C)C1OCCN1C(=O)c1ccccc1 (configuration not stated)	13	-3%	2.3	-31%[inhibitor]	14%	-0.5%	-8
COc1ccc(NC(=O)c2oc3ccccc3c2NC(=O)c2ccc(OC)c(OC)c2)c(OC)c1	7	-3%	x	4%[15.4 µM]	x	x	x
COc1cccc(CN2CC(C(=O)NCc3cccc(N4CCCC4)c3)CCC2=O)c1 (configuration not stated)	-2	3.2µM*	u	-44%[inhibitor]	12%	0.2%	-7
COc1ccc2cc(C)c3nnc(SCC(=O)Nc4cc(OC)c(OC)cc4C(=O)O)n3c2c1	u	9%	0.2	-25%	-13%	x	4
CCC(CC)NC(=O)CO/N=C/c1ccccc1OC(F)F	3	-3%	8.3	-1%	-8%	2.3%	17
COC(=O)CCSc1cc(NCCOC(C)=O)c([N+](=O)[O-])c2nonc12	-10	8%	0.7	10%	-2%	-1.2%&1.2%	3
CC(=O)Nc1ccc(-c2nc(C)c(C(C)=O)n2O)cc1	-8	-2%	2.2	1%	-9%	-30%	u
COc1ccc(S(=O)(=O)N2CCCc3ccccc32)cc1[N+](=O)[O-]	0	-8%	-7.8	u	-8%	-0.1%	-10
CCOc1cccc(C2c3c(oc4cc(C)c(C)cc4c3=O)C(=O)N2CCCN(C)C)c1 (configuration not stated)	x	x	-1.2	x	u	x	7
COc1ccccc1NC(=O)COc1ccc(Br)cc1CNC1CCCC1	8	-34%	-0.5	11%[15.4 µM]	-6%	x	-15
Cc1ccc(NC(=O)c2ccn(C)n2)c(Br)c1	-1	10%	1.0	-6%[15.4 µM]	9%	1.2%	-15
O=C(N/N=C/c1ccccc1)C1CCCN1C(=O)c1cc([N+](=O)[O-])cc([N+](=O)[O-])c1 (configuration not stated)	-13	10%	x	u	8%	0.7%	17
CCOC(=O)C[C@H]1c2ccc(C(F)(F)F)cc2S(=O)(=O)N1c1cccc(OC)c1	0	-12%	x	-29%	x	-1.3%&-3.7%	x
CC(C)Sc1n[nH]c(=O)n1-c1cccc(C(F)(F)F)c1	x	0%	-0.9	-25%	-4%	-0.3%	-13
CC1CCC2(CC1)NC(=O)N(CC(=O)N1c3ccccc3CC1C)C2=O (configuration not stated)	5	6%	x	-31%[inhibitor]	x	-6.2%	x
CCc1ccc2oc(C(=O)Nc3nonc3C)c(C)c2c1	x	-18%	x	-4%	7%	-10%	-6
COc1ccc(OCCN(C)CC(=O)Nc2c(C)cccc2C)cc1	-15	10%	0.2	5%[15.4 µM]	-16%	20µM*	-9
CN(C)S(=O)(=O)N1CCN(S(=O)(=O)c2ccc(F)cc2)CC1	0	3%	6.3	11%	13%	-1.7%	-7
COc1cc(-n2c(C)nc3cc(C(=O)NCC4CCCO4)ccc32)cc(OC)c1OC (configuration not stated)	-6	14%	-0.5	u	9%	-0.3%	-8
O=C(Nc1ccn(Cc2c(F)c(F)cc(F)c2F)n1)c1ccc(COc2ccccc2Cl)cc1	0	-8%	-0.9	12%	7%	-17%	0
c1ccc(-c2nn3c(Cn4nnc5ccccc54)nnc3s2)nc1	-18	3%	-27	4%	16µM*	-2.2%	5
CCc1nc2scc(-c3ccc(C)cc3)c2c(=O)n1N	3	-4%	4.4	-2%[15.4 µM]	2%	x	-9
CCC1CC(CSC(=N)N)OC1=O (configuration not stated)	-17	-9%	-1.4	1%[15.4 µM]	6%	-17%	0
O=C(N/N=C/c1ccc(O)cc1)c1ccc(COc2cc(Cl)ccc2Cl)o1	-13	-2%	u	8%	u	31%	-14
O=c1[nH]c2ccc(S(=O)(=O)N3CCC(Cc4ccccc4)CC3)cc2o1	-5	25µM*	0.7	8%	3%	-1.6%	-6
CCOC(=O)Cc1csc(NC(=O)CCN2C(=O)c3cccc([N+](=O)[O-])c3C2=O)n1	-9	-1%	3.1	0%[15.4 µM]	12%	x	24
CN(C)S(=O)(=O)c1ccc(Cl)c(NC(=O)COC(=O)/C=C/c2ccc3ccccc3n2)c1	-14	-8%	x	-11%	x	-2.9%	1
Cc1sc2ncn(CC(=O)Nc3c(F)cccc3F)c(=O)c2c1S(=O)(=O)N1CCC(C)CC1	1	8%	6.7	15%	22%	x	11
CCCc1cnc(N2CCN(C(=O)c3c(-c4ccccc4)noc3C)CC2)nc1	7	-2%	5.3	-2%[15.4 µM]	-10%	0.0%	x
COC(=O)c1ccccc1NC(=O)CSCC(=O)Nc1ccccc1OC	0	-15%	1.5	-20%	0%	-6.5%	6
CN(C(=O)CN1CCN(c2cnn(-c3ccccc3)c(=O)c2Cl)CC1)C1CCS(=O)(=O)C1 (configuration not stated)	5	4%	x	-11%	x	1.7%	5
COc1ccc(CCNC(=O)c2ccc3nc(N4CCCCC4)sc3c2)cc1OC	-2	-17%	-0.1	-30%[inhibitor]	-7%	-15%	6
CC1CCCC(C)N1CCCNC(=O)CCn1c(=O)c2cccn2c2cccnc21 (configuration not stated)	1	10%	-2.7	u	17%	3.7%	0
CCCNC(=O)C1=C(C)C(=O)OC12CCC(C)CC2 (configuration not stated)	-14	-6%	0.3	27%	10%	-0.7%	3
CCC(=O)N1CCc2cc(S(=O)(=O)N3CCCC3)ccc21	x	8%	x	17%	16%	-0.1%	1
Cc1ccc(-c2n[nH]c3c2CCC3)cc1	-1	8%	0.6	2%	3%	-2.7%	-34
Cc1ccc(NC(=O)CSc2nc3ccccc3nc2N2CCOCC2)cc1	8	-2%	3.3	30%	6%	u	-6
CC(C)N1CN(c2ccccc2)C(=S)N(c2ccccc2)C1	-2	10%	-1.6	-2%[15.4 µM]	17%	x	-7
CCOC(=O)C1=CN(Cc2cccc(-c3ccc(Cl)nc3)c2)S(=O)(=O)N(C)C1C (configuration not stated)	10	-13%	x	x	x	-8.4%	x
Cc1noc(C)c1NC(=O)N(C)C[C@H]1Oc2c(NC(=O)Nc3ccc(C(F)(F)F)cc3)cccc2C(=O)N([C@H](C)CO)C[C@@H]1C	0	-7%	x	x	x	-5.0%	x
COc1ccccc1NC(=O)C(=O)c1cn(CC(=O)N2CCOCC2)c2ccccc12	x	-11%	x	-30%	22%	-0.7%	1
NC(=S)N/N=C/c1ccc(/C=N/NC(N)=S)cc1	x	5%	0.7	-3%	-3%	-10%	7
Cc1noc(C)c1NC(=O)N(C)C[C@H]1Oc2ccc(NC(=O)NC(C)C)cc2C(=O)N([C@H](C)CO)C[C@H]1C	-7	-2%	x	x	x	4.2%	x
COC(=O)CCCC(=O)OC	-2	-4%	x	x	x	-0.8%	x
Cc1nc(SCc2ccc(O)c([N+](=O)[O-])c2)n[nH]1	0	-6%	0.0	5%[15.4 µM]	u	x	0
CCCNC(=O)c1[nH]c(C)c(C(C)=O)c1C	3	0%	0.0	-1%	10%	-0.9%	19
CN(C)NC(=S)Nc1ccc2nc(-c3ccccn3)c(-c3ccccn3)nc2c1	u	4%	-15	-2%	-9%	-16%	-1

# (cont.)
SMILES	CtBP-E1A inh	gsp antagonist	Menin-MLL FL inh	gsp agonist	Sfp PPTase inh	ClpP mod	TRPV1 PAM
CCOC(=O)c1c(CN2CCOCC2)n(-c2ccccc2)c2cc(Br)c(O)c(CN(C)C)c12	-2	0%	-0.9	-26%	5%	2.5%	-6
O=C(c1ccc(Cl)cc1)N1CCN(c2ccc([N+](=O)[O-])c(NCc3cccnc3)c2)CC1	-11	-22%	x	3%	x	0.7%	x
NC(=O)CSc1ncc(-c2ccccc2)[nH]1	9	10%	0.1	-31%[inhibitor]	-3%	-1.1%	0
CCCCN(CCCC)S(=O)(=O)c1c(C)[nH]c(=O)[nH]c1=O	x	3%	1.6	4%[15.4 µM]	-2%	x	-5
CC(C)NC1=C(Cl)C(=O)c2ccccc2C1=O	u	-9%	4.1	4%	0%	0.2%	u
